Compound activity (PubChem)
Sfp inh: inhibitors of Bacillus subtilis Sfp phosphopantetheinyl transferase. AID 1490. hit rate 3.5% among 310,000. Potency, µM, for the others: max response, negative = inhibition, hits mostly inhibitors. Q9F4F7. Biochemical Sfp PPTase activity, qHTS; active means well fitted inhibition curve with a large enough effect; inconclusive means small, poorly fitted or top-dose-only effect, or another doubt; inactive means no such curve, though single readings can be large or run the other way;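 further: the enzyme is Sfp with the accession as filed and its product quenches rhodamine fluorescence; potency means the concentration at half of the fitted maximal effect; 0% = enzyme reaction without inhibitor and -100% = no enzyme wells; top concentration of the series not given in the record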
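With Hepes-Na pH 7.6 buffer containing 10 mM MgCl2, Sfp (15 nM) modified BHQ-2-YbbR (12.5 uM) using rhodamine-CoA (5 uM). Two reads 30 minutes apart at 525/598 nm yielded each well's rate.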
ClpP mod: qHTS Assay for Activators of ClpP | Potency, µM (doses to about 57.5 µM), inactives show at the top dose activity change, negative = active | purified B. subtilis ClpP, FRET peptide cleavage, 20 min | ATP-dependent Clp protease proteolytic subunit (Bacillus subtilis (strain 168)), P80244 | hit rate 1.9% among 340,000 | AID 651965, 2013; active = well fitted falling curve with a large enough effect; inconclusive = small, poorly fitted or top-dose-only effect; inactive = no such curve, though single readings can be large or run the other way; further: potency means the concentration at half of the fitted maximal effect; the source files actives as falling curves though it sought activators and does not explain the sign; nearly all actives have a fitted effect of over 65% in size; many hits overshoot -100%
Target sequence (P80244 whole entry, looked up): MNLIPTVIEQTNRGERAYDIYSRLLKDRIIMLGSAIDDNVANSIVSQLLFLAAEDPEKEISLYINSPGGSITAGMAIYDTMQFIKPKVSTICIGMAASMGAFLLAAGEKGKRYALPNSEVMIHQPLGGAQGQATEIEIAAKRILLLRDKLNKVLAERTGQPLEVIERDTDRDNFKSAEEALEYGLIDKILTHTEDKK
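Buffer: 100 mM Tris/HCl pH8, 100 mM KCl, 0.05% low protease BSA, 2.5% glycerol, 0.01% Tween-20. ClpP 10 microg/mL final; 20 min RT; delta FRET normalized to ADEP and DMSO controls.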
gsp ag: agonists of gsp mutant (McCune-Albright syndrome); gsp mutant cells, cAMP HTRF, 30 min; control for the full effect not named in the record; Potency, µM (titrated, usually from 76.9 µM), without a hit: at the highest dose activation (cAMP increase), hits mostly activators; hit rate 0.13% among 340,000; active = well fitted activation curve with a large enough effect; inconclusive = small, poorly fitted or top-dose-only effect, or another doubt; inactive = no such curve, though single readings can be large or run the other way; cell line not stated here;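 further: phosphodiesterase inhibitor Ro 20-1724 added with compounds to block cAMP breakdown; potency means the concentration at half of the fitted maximal effect; nearly all actives have a fitted effect of over 60% in size; about a fifth of the inactives were tested at one dose only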
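Cells in DMEM/10% FBS with G418 were pretreated with compounds in DMSO plus […] (300 uM stock) for 30 min at 37C. cAMP was measured by HTRF (cAMP-d2 plus anti-cAMP antibody-K) after 30 min at room temperature.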
PINK1 expr mod: modulators of PINK1 expression; PINK1 immunofluorescence, high-content cytometry, 24 h; Potency, µM (titrated, usually from 76.6 µM), inactives show at the highest dose activation (PINK1 increase), hits mostly activators; hit rate 0.2% among 410,000; active = well fitted activation curve with a large enough effect; inconclusive = small, poorly fitted or top-dose-only effect; inactive = flat fitted curve, though single readings scatter; cell line not stated here;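 further: potency means the concentration at half of the fitted maximal effect; % of control where 0% means no effect; nearly all actives have a fitted effect of over 65% in size; a mitochondrial uncoupler was the plate control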
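Cells are seeded, rested 12 hours, then given compound at five concentrations or DMSO for 24 hours. After fixation, blocking and antibody staining, PINK1 amount and mitochondrial localization are scored; CCCP serves as control.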
gsp antag: gsp mutant antagonism. gsp-mutant cells, cAMP HTRF, 30 min; control for the full effect not named in the record. Potency, µM (top dose mostly 76.9 µM), without a hit: top-dose activity change, negative = inhibition, actives largely listed as inhibitors. hit rate 0.4% among 340,000; active = falling curve of any shape with a large fitted effect; inconclusive = falling curve, mostly with a smaller effect; inactive = flat or rising curve; cell line not stated here;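 further: intracellular cAMP measured with PDE inhibitor Ro 20-1724 present during compound exposure; potency means the concentration at half of the fitted maximal effect; on the % scale 0 is the no-effect control and ±100 the full control effect; nearly all actives have a fitted effect of over 65% in size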
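HTRF cAMP measurement after 30 min RT detection following 30 min, 37C compound treatment alongside […] (added as 300 uM solution) in G418-selected cells seeded at 2000/well and grown 16–24 h.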
Menin MLL FP FL: displaces fluorescein MLL peptide from human menin. Fluorescence polarization, fluorescein-MLL peptide displacement from menin. FP activity change, % at 61.4 µM. 290,000 tested, under 10 active; inconclusive = falling polarisation curve, or a change in total fluorescence; inactive = total fluorescence flat and polarisation flat or rising; no compound was filed as active; the % refers to the polarisation; negative = inhibition;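 further: % of control where 0% means no effect; inhibitors lower the polarisation; unlabelled MLL peptide was the positive control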
D2 agonist: human D2 receptor agonism in beta-arrestin assay | DiscoveRx PathHunter D2 beta-arrestin, luminescence, 90 min; 100% = 57 uM dopamine signal | P14416 | activation, % (test concentration not listed) | hit rate 0.084% among 360,000; in the data active = activation above about 40%; inconclusive = about 15% to 40%; inactive = below about 15%; further: compound concentration not given in the record; the text of the record calls up to 30% inactive
Target sequence (P14416 whole entry, looked up): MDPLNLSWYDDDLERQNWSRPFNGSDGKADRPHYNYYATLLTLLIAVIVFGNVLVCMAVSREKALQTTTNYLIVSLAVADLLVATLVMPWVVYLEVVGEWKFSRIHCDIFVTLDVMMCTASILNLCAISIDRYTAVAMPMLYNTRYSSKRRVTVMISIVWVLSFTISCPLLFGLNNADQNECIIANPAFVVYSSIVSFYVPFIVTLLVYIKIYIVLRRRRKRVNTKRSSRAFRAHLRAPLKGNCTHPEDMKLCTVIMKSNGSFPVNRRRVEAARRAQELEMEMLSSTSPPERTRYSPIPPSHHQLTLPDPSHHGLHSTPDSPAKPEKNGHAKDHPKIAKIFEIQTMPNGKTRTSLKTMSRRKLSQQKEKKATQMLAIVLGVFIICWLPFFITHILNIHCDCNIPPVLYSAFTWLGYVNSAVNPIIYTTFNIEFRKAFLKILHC
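Agonist mode: compounds alone added to overnight-plated D2 PathHunter cells for 90 min at 37 C, with 57 uM final dopamine (EC100) defining full response. Beta-arrestin recruitment detected by chemiluminescent reagent, read after 1 h at ambient temperature.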
The depositor's hits bear a star; u = inconclusive; x = no result given; & = joins results of further samples; [ ] = remark or other dose.

structure,gsp antag,PINK1 expr mod,Sfp inh,ClpP mod,gsp ag,Menin MLL FP FL,D2 agonist
COc1ccc(-c2nn(-c3ccccc3)cc2/C=C2/SC(=S)N(CCC(=O)O)C2=O)cc1,32µM*,0.3%,-7%,-1.6%,-5%[15.4 µM],27,-3.6
Cc1noc(NC(=O)c2ccccc2Cl)c1C#N,-1%,1.3%,13%,-1.8%,22%,0.6,-1.2
COc1ccc(OC)c(NC(=O)COC(=O)C2CCCCC2)c1,-6%,-0.5%,x,0.2%,-13%[15.4 µM],x,0.2
Brc1ccc(-c2nc(-c3ccncc3)no2)cc1,2%,1.1%,3%,0.0%,-11%,0.7,-1.0
O=C(NCc1ccncc1)c1ccc(Cn2cc(C(F)(F)F)ccc2=O)cc1,2%,-3.1%,16%,-4.9%,10%,4.3,2.0
O=C(CSc1nnc2c(n1)[nH]c1ccc(S(=O)(=O)N3CCOCC3)cc12)Nc1ccccc1Cl,u,17%,8%,12%,-3%,-0.5,-4.5
COc1ccccc1C(=O)COC(=O)Cn1c(C)csc1=O,14%,-1.0%,x,-7.6%,-1%[15.4 µM],x,-4.7
CC(=O)c1ccc(N2CCN(C(=O)c3cc(C)on3)CC2)cc1,-3%,2.5%[38.3 µM],9%,-6.6%,-43%[inhibitor],0.6,-2.3
O=C1[C@H](Cc2ccccc2)NCC=CC[C@@H](c2ccco2)N1Cc1ccccc1,0%,1.8%,x,1.1%,5%,x,-1.1
Cc1c(-c2cc(C(=O)O)no2)cnn1C,3%,-1.1%,25%,x,21%[15.4 µM],-2.2,-0.9
Cc1ccc(-c2nc(=O)[nH]c3ccc(Br)cc23)cc1,-2%,-1.7%,-2%,1.4%,11%[15.4 µM],-5.8,-3.2
Cc1ccc(NS(=O)(=O)c2cccc(C(=O)O)c2)c(C)c1,-7%,x,12%,0.1%,-46%,-0.8,-0.8
Cc1ccc(S(=O)(=O)N(C)C)cc1NC(=S)NCCCn1ccnc1,4%,-1.9%,19%,2.0%,18%,0.1,-0.9
COC(=O)c1ccc(/C=C2/C(=O)Oc3ccccc32)cc1,-15%,5.9%,9%,x,15%[15.4 µM],x,0.9
COc1ccc(-c2nc3ccc(Cl)cn3c2Cc2ccc(C)cc2)cc1OC,x,2.6%,x,-27%,x,x,-3.4
CC(C)(C)NC[C@H](O)COc1cccc2c1CCCC2=O,32%[activator],1.5%,35%&15%[activator],-19%,x,-0.8&2.9[24.8 µM],-7.2
CCn1cc(C(=O)OCC(=O)OC2CC(C)CCC2C(C)C)c(=O)c2ccc(C)nc21 (stereo not drawn),-11%,1.5%,-11%,0.7%,6%,5.3,-3.4
COc1ccc(C(=O)c2cc([N+](=O)[O-])ccc2N2CCN(C)CC2)cc1,12%,0.9%,2%,x,-2%[15.4 µM],-1.1,-6.8
Nn1c(SCC(=O)Nc2ccccc2F)nnc1-c1cccs1,2%,1.1%,x,x,9%[15.4 µM],x,-0.8
COCc1nnc(NC(=O)CS(=O)(=O)c2ccc(C)cc2)s1,4%,-0.8%,-15%,x,-6%[15.4 µM],1.4,-1.4
COc1ccc(N2CCN(C(=O)CSc3ncn[nH]3)CC2)cc1,13%,-0.7%,x,-1.5%,-9%[15.4 µM],x,-2.7
Cc1ccccc1C(=O)NC(CC(C)C)C(=O)Nc1ccc(F)c([N+](=O)[O-])c1 (stereo not drawn),7%,2.2%,-7%,-1.3%,-6%[15.4 µM],3.8,-8.9
CCOC(=O)Cc1cn2c(=O)cc(CSCC(=O)Nc3ccc(C)c(C)c3)nc2s1,5%,1.2%,10%,-6.8%,-48%[inhibitor],-1.8,-4.5
COc1ccccc1CNC(=O)C[C@@H]1C[C@H]2c3cc(N(C)C)ccc3O[C@H]2[C@H](CO)O1,x,4.8%,x,-20%,-4%,x,-1.7
NC(=O)CC(NC(=O)Cc1cccc2ccccc12)c1ccc(N2CCN(c3ccc(F)cc3)CC2)c([N+](=O)[O-])c1 (stereo not drawn),-4%,1.2%,2%,-0.9%,7%,-5.0,-0.9
O=C(CCN1C(=O)c2ccccc2S1(=O)=O)N1CCN(c2cccc(Cl)c2)CC1,-32%,2.7%,x,x,-5%[15.4 µM],x,-4.6
O=C(Nc1cccc(Cl)c1)c1csc([C@@H]2O[C@H](CO)[C@H](O)[C@H](O)[C@H]2O)n1,x,1.1%,x,1.1%,x,x,-7.0
CC1=C(C(=O)OCc2ccccc2)C(c2ccccc2)NC(=O)N1 (stereo not drawn),3%,-0.6%,3%,-0.8%,-4%,-6.3,14
O=C(N/N=C/c1ccc(O)c2ncccc12)c1cccc(Br)c1,-6%,u,23%,x,-15%,6.2,8.1
O=C(CSc1nnc(CNc2ccc(F)cc2)o1)OC1CCCCC1,-29%,1.8%,-4%,-1.8%,-29%,2.4,0.5
Cc1cc(N2CCN(c3ccccc3)CC2)n2c(n1)nc1ccccc12,-15%,8.5%[38.3 µM],-8%,-7.6%,18%,u,-2.4
COc1cc(C(=O)NCc2nnc(SCC(=O)Nc3cccc(C(F)(F)F)c3)o2)cc(OC)c1OC,3%,0.4%,10%,-2.2%,16%,x,-1.7
O=C(CCNS(=O)(=O)c1cccs1)NCc1ccco1,-1%,-2.4%,2%,-1.1%,-18%,5.6,-0.3
c1ccc(-c2noc(-c3ccc4ccccc4c3)n2)cc1,14%,2.0%[38.3 µM],5%,u,-16%,2.5,-2.9
O=C(NCc1ccccn1)C(=O)Nc1cc2c3c(c1)CC(=O)N3CCC2,5%,2.6%,x,1.3%,-8%,x,-2.7
Cc1ccccc1NC(=O)C(=O)NCCCN1CCOCC1,9%,-0.6%,15%,x,-10%,-7.5,-2.6

Not a retest: an excerpt of the list.
structure,gsp antag,PINK1 expr mod,Sfp inh,ClpP mod,gsp ag,Menin MLL FP FL,D2 agonist
O=C(CSc1nnc(CNc2ccc(F)cc2)o1)OC1CCCCC1,-29%,1.8%,-4%,-1.8%,-29%,2.4,0.5
Cc1cc(N2CCN(c3ccccc3)CC2)n2c(n1)nc1ccccc12,-15%,8.5%[38.3 µM],-8%,-7.6%,18%,u,-2.4

(continued)
structure,gsp antag,PINK1 expr mod,Sfp inh,ClpP mod,gsp ag,Menin MLL FP FL,D2 agonist
Nc1c(N(Cc2ccco2)C(=O)c2ccccc2F)c(=O)[nH]c(=O)n1Cc1ccccc1,5%,-0.2%,x,-3.3%,6%,x,-2.0
O=C(O)C(O)(c1ccccc1)C(O)c1ccccc1 (stereo not drawn),5%,1.9%,x,-2.1%,0%[15.4 µM],x,-3.9
CCC/C=N/NC(=O)c1cc(Br)ccc1O,2%,-0.1%,17%,u,-75%[inhibitor],1.4,-7.4
O=C1c2ccccc2S(=O)(=O)c2cc(C(=O)N3CCN(c4ccc(Cl)cn4)CC3)ccc21,-10%,0.6%,x,-0.3%,-8%,x,3.3
CCCNC(=O)C[C@@H]1C[C@H]2c3cc(NC(=O)c4ccc5c(c4)OCO5)ccc3O[C@H]2[C@@H](CO)O1,x,-1.9%,x,0.2%,u,x,-3.7
Cc1cc2ccccc2c(=O)n1CC(=O)NCC(=O)N1CCN(c2ccccc2F)CC1,4%,11%[38.3 µM],-16%,u,-1%,0.1,-1.1
COc1ccccc1NC(=O)C(O)C(O)C(=O)Nc1ccccc1OC (stereo not drawn),5%,-2.1%,10%,0.9%,u,3.7,-0.4
O=C(CSc1ccc(-c2ccc(F)cc2)nn1)N1CCCCC1,9%,19%[38.3 µM],14%,-2.0%,-3%,1.4,-2.0
Cc1cc(NC(=O)Cn2nc(C(F)(F)F)c3c2CCCC3)no1,-2%,0.9%,14%,28µM*,-12%,0.3,-1.0
CCc1nn2c(NCCOC)cc(C)nc2c1-c1ccc(F)cc1,-6%,3.0%,-9%,x,-14%[15.4 µM],3.6,-4.8
COc1ccccc1OCCNC(=O)CNC(=O)c1ccc(Cl)c(Cl)c1,7%,2.4%,x,-3.5%,11%,x,-2.5
S=C(c1ccc(-c2cccc(Cl)c2)o1)N1CCCCC1,-6%,1.9%,-43%,x,1%[15.4 µM],4.6,-1.7
Cc1cccc(-n2nnc(C(=O)NCc3ccc4c(c3)OCO4)c2N)c1,12%,1.5%,-1%,0.0%,-17%,3.9,-0.3
COc1cccc(CN2CCN(Cc3ccc4cccc(F)c4n3)CC2CCO)c1 (stereo not drawn),-14%,-0.3%,14%,x,-29%,-0.3,-4.4
O=C(N/N=C/c1ccc(OC(=O)c2ccccc2Cl)cc1)c1ccc(O)cc1,u,2.9%,13%,1.2%,-15%,x,-1.9
CCC(=O)c1c[nH]c(C(=O)NCc2ccco2)c1,-1%,-0.9%,18%,0.9%,1%,2.7,-1.8
Cc1c(C(=O)N2CCCC2)oc2c1-c1[nH]ncc1CC2,-4%,1.9%,u,-5.0%,4%,2.8,1.2
O=C(CCCCN1CCCCC1)c1ccccc1,9%,-1.1%,x,x,0%,x,-3.9
CCNc1nc(Cl)nc(-c2cn(-c3ccccc3)c3ccccc23)n1,-1%,6.1%,u,5.0%,-25%,-13,-0.9
Cc1ccc(S(=O)(=O)N(C)C)cc1NC(=S)NNC(=O)C(N)=O,-8%,0.6%,22%,x,-3%[15.4 µM],-6.3,-5.2
CCOc1ncccc1C(=O)NNC(=O)CSc1ccc(Cl)cc1,11%,4.5%,x,-5.2%,-9%,x,-3.6
COc1cc2c(cc1OC)CN(CC(=O)Nc1ccc(F)cc1)CC2,1%,-0.6%,2%,7.3%,4%[15.4 µM],0.0,-1.8
CCn1ccnc1CN1CCc2c([nH]c3ccccc23)C1CC(C)C (stereo not drawn),0%,0.8%,-13%,-7.4%,3%,-2.5,-2.7
CCOc1ccc(S(=O)(=O)N(CC)CC(=O)NCc2cccnc2)cc1C,4%,-1.8%,22%,x,-4%,1.9,-4.0
O=C(NCCc1ccccc1)C1CCN(S(=O)(=O)c2cccnc2)CC1,4%,-1.0%,1%,2.8%,2%,3.2,-4.5
